VDR inh: vitamin D3 receptor (human) inhibition; 0.93% of 400,000 active; AID 504847; Potency, µM, for the others: max response, negative = inhibition, most hits filed as inhibitors; VDR-SRC2-3 peptide fluorescence polarization, 2 h; active = well fitted inhibition curve with a large enough effect; inconclusive = small, poorly fitted or top-dose-only effect, or another doubt; inactive = no such curve, though single readings can be large or run the other way; also: series mostly up to about 120 µM
Target sequence (P11473 whole entry, looked up): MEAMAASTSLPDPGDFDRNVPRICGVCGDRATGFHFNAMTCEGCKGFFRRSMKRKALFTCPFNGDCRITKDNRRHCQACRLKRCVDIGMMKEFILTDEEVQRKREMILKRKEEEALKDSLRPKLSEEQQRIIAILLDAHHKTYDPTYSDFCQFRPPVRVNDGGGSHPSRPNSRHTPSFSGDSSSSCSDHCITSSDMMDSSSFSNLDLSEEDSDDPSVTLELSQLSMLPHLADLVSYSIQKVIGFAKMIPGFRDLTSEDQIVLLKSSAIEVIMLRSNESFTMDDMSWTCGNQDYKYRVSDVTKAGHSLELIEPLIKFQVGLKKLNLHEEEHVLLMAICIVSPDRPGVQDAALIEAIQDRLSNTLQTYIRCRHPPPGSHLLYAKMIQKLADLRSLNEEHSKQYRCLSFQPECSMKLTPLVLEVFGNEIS
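FP read-out; VDR + SRC2-3 coactivator peptide; 23 nl compound by pintool; 2 h RT incubation; reagents held at 4 deg C, protected from light.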
* hit, by the source's call; ? = inconclusive; & = joins results of further samples; [ ] = another dose, or the depositor's remark. % is scaled to controls: 0 for no effect and ±100 for the full control effect; potency is read from the fitted curve at half-maximal effect. These rows are one share of the data (hit frequency here may not be typical).

SMILES | VDR inh
O=S(=O)(Nc1ccccn1)c1cc(Cl)ccc1Cl | -13.0%
COc1cc(NC(=O)C/C(C)=N/NC(=O)c2cccs2)c(OC)cc1Cl | 3.5%
O=CN1CCN(C2CC(=O)N(c3ccc4c(c3)OCO4)C2=O)CC1 (configuration not stated) | -15.0%
CN(Cc1ccccc1)C(=O)CN(Cc1ccccc1)S(C)(=O)=O | -14.0%
CCOc1ccc2oc(=O)cc(CN3CCN(c4cc(C)ccc4C)CC3)c2c1 | -1.4%
C/C(Cn1nnc([N+](=O)[O-])n1)=N\NC(=O)c1ccccc1 | 4.0%
CN(CCNC(=O)C1CCCN(c2ncnc3c2nc2n3CCCCC2)C1)Cc1ccccc1 (configuration not stated) | -13.8%
CC(=O)c1c(C)n(CCc2ccc(Cl)cc2)c2ccc(O)cc12 | 10.4%
Cc1ccc(S(=O)(=O)c2c(CO)c(-c3ccccc3)nn2C)cc1 | -5.9%
O=C(c1ccc(S(=O)(=O)c2ccc(Cl)cc2)cc1)N1CCOCC1 | -9.2%

Structural class, the compounds so far with four or more nitrogen atoms
SMILES | VDR inh
C/C(Cn1nnc([N+](=O)[O-])n1)=N\NC(=O)c1ccccc1 | 4.0%
CN(CCNC(=O)C1CCCN(c2ncnc3c2nc2n3CCCCC2)C1)Cc1ccccc1 (configuration not stated) | -13.8%

(more compounds)
SMILES | VDR inh
COc1cc(/C=C(\C#N)C(=O)Nc2ccc(C)cc2)ccc1OCc1cc(=O)n2nc(C)sc2n1 | -13.7%
COc1ccc(CN2C3CCCC2CC(NC(=O)Nc2cccc(C)c2)C3)cc1 (configuration not stated) | -10.5%
CCOc1ccc(CC(=O)NNC(=S)Nc2ccccc2)cc1Br | -9.4%
Cc1cc(C(=O)CSc2nncs2)c(C)n1-c1ccc2c(c1)OCO2 | -15.2%
Cc1ccc(OCC(=O)Nc2nnc(SCc3cc(=O)n4cc(C)ccc4n3)s2)cc1 | 10.0%
COc1ccc(-c2nc3cc(C)ccn3c2NC2CCCCC2)cc1SC1CCCCC1 | ?
C/C=C(\C)C(=O)C[Si](C)(C)c1ccccc1 | 1.6%
Cc1ccc(-c2c3c(=O)n(C)c(=O)n(C)c3cn2CCCN2CCOCC2)cc1 | -4.7%
Cc1nnc(SCC(=O)NC(C)(C)C)n1NCc1ccc(N(C)C)cc1 | 3.5%
COc1cc2ccc(=O)oc2cc1O | 6.3%&-11.0%

Continued; the last 4 above are carried over.
SMILES | VDR inh
C/C=C(\C)C(=O)C[Si](C)(C)c1ccccc1 | 1.6%
Cc1ccc(-c2c3c(=O)n(C)c(=O)n(C)c3cn2CCCN2CCOCC2)cc1 | -4.7%
Cc1nnc(SCC(=O)NC(C)(C)C)n1NCc1ccc(N(C)C)cc1 | 3.5%
COc1cc2ccc(=O)oc2cc1O | 6.3%&-11.0%
Cc1ccc(F)cc1-c1ccc(C(=O)N=C(N)N)o1 | -1.1%
O=C(O)c1c2c(nc3ccccc13)/C(=C/c1ccc(OC(F)F)cc1)CCC2 | 1.3%
CC(=O)n1nc(-c2ccncc2)nc1SCC(=O)Nc1cccc(Cl)c1 | -5.3%
CN1CCNC(=O)C1CC(=O)O (configuration not stated) | 19.4%
CCCn1c(CCC(=O)O)nc2cc(S(=O)(=O)N3CCCC3)ccc21 | 7.9%
O=C(CN1CCN(c2ccccn2)CC1)Nc1ccccc1F | -8.2%
COc1ccc(C(=O)N/N=C/c2c[nH]c3ccccc23)cc1 | -28.0%
CC(=O)Nc1cccc(CCc2nc3ccccc3[nH]2)c1 | 70.8µM*
O=C(N/C(=C/c1ccccc1)C(=O)N1CCCCC1)c1ccccc1 | -10.0%
CCCCN(C)C(=S)Nc1ccc2nc(N3CCN(CC)CC3)cc(C)c2c1 | -3.6%
CC(NC(=O)c1ccccc1[N+](=O)[O-])C1CC2CCC1C2 (configuration not stated) | -12.1%
COc1cc(NC(=O)Nc2cccc(Cl)c2)c(C(=O)O)cc1OC | -24.5%
Cc1ccccc1CN1c2ccccc2-c2nc(SCC(=O)NCc3ccccc3)ncc2S1(=O)=O | 0.4%
COc1ccc(OCC(O)Cn2c(N3CCCCC3)nc3c2c(=O)[nH]c(=O)n3C)cc1 (configuration not stated) | -13.3%
CCN(C(=O)COC(=O)c1ccc(Br)o1)C1CCCCC1 | 2.9%
O=C(CN(Cc1ccc(Cl)cc1)C(=O)c1csnn1)NCc1ccc(F)cc1 | -16.3%
O=S(=O)(c1cc(Br)c(Br)s1)N1CCN(c2ccccc2)CC1 | 19.6%
O=C(Cn1cc(C(=O)c2cccs2)c2ccccc21)NC1CCCCC1 | -1.0%
CN(C(=O)c1ccc(NC(=O)C2CCCN(C(=O)OC(C)(C)C)C2)cc1)C1CCCCC1 (configuration not stated) | -9.8%
COc1ccccc1CNC(=O)COC(=O)CCC(=O)c1cccs1 | 16.4%
C[C@H](N)C(=O)OCc1ccc([N+](=O)[O-])cc1 | -20.2%
Cc1ccc(Sc2c([N+](=O)[O-])c(=O)n(C)c3ccccc23)cc1 | -15.6%
NC1=NC2C(N=C(Br)N2[C@@H]2O[C@H]3COP(=O)(O)O[C@@H]3[C@@H]2O)C(=O)N1 (some centres not stated) | 1.9%&1.3%
CC(C)Cn1c2ccccc2c2cc(C(=O)O)ccc21 | -11.7%
CCOC(=O)c1[nH]c(C)c(C(=O)Nc2ccc(C)c(F)c2)c1C | -0.7%
COc1ccccc1NC(=O)c1ccc2c(c1)N(CC(=O)NC(C)C)C(=O)C(C)(C)O2 | 6.9%
Cc1ccc(NC(=O)C(=O)c2ccc(C)cc2)cc1 | 0.7%
CCCn1c2ccccc2c2cnn(CC(=O)NCCc3cc(OC)ccc3OC)c(=O)c21 | 0.8%
CN(C)CCNc1oc(-c2ccccc2F)nc1C#N | -19.6%
Cc1cc(/C=C2\SC(=S)N(C)C2=O)c(C)n1-c1cccc(O)c1 | -11.9%
CCOC(=O)C1=C(c2ccccc2)NC(=O)NC1c1ccc(O)c(Cl)c1 (configuration not stated) | -6.3%
COc1ccc(S(=O)(=O)N(C)CC(=O)Nc2ccc(F)cc2)cc1 | -6.1%
N#CC(=C=[N-])c1nc2ccccc2nc1-[n+]1ccccc1 | ?
Cc1cc(C)n(C(=O)CCCCCCCCC(=O)n2nc(C)cc2C)n1 | 1.0%
CCCCc1nc(N2CCN(C(=O)c3ccco3)CC2)c(C#N)c2c1CCCC2 | -8.8%
CCN1CC(CN(C)Cc2nc(-c3ccc(C(F)(F)F)cc3)oc2C)CC1=O (configuration not stated) | 10.7%
CCCSc1nnc(C(C)C)n1N | -4.9%
O=C(CCC(=O)Nc1cccc(C(F)(F)F)c1)NCC1CCCO1 (configuration not stated) | 1.8%
COc1ccc(-c2nn(C)c3sc(C(=O)N4CCN(c5cccc(Cl)c5)CC4)cc23)cc1OC | -20.9%
CCOC(=O)N1CCN(C/C(Cl)=C/c2ccccc2)CC1 | -9.8%

Five of the compounds above, as tab-separated lines:
compound	VDR inh
Cc1cc(C)n(C(=O)CCCCCCCCC(=O)n2nc(C)cc2C)n1	1.0%
CCOC(=O)N1CCN(C/C(Cl)=C/c2ccccc2)CC1	-9.8%
COc1ccc(-c2nn(C)c3sc(C(=O)N4CCN(c5cccc(Cl)c5)CC4)cc23)cc1OC	-20.9%
CCCSc1nnc(C(C)C)n1N	-4.9%
CCN1CC(CN(C)Cc2nc(-c3ccc(C(F)(F)F)cc3)oc2C)CC1=O (configuration not stated)	10.7%

Next part:
SMILES | VDR inh
COc1ccc(CCNC(=O)c2nnn(-c3cc(C)cc(C)c3)c2N)cc1OC | 2.3%
Cc1noc(C)c1COc1cccc(C(=O)Nc2cccnc2)c1 | -15.9%
Cc1c(NC(=O)c2cccc(NC(=O)COc3ccccc3C#N)c2)c(=O)n(-c2ccccc2)n1C | 10.9%
CCC(Sc1nc2ncccc2o1)C(=O)Nc1ccc(OC)c(OC)c1 (configuration not stated) | 14.2%
COCCn1c(SCC(=O)NC(=O)Cc2ccccc2)nc2ccccc2c1=O | -16.1%
CN1CCC(OC(c2ccccc2)c2ccc(Cl)cc2)C1 (configuration not stated) | -4.4%
Nn1cc(-c2ccccc2)nc1SCC(=O)NC1CCS(=O)(=O)C1 (configuration not stated) | -5.7%
CCCc1cc(C(=O)O)c2ccccc2n1 | 5.7%
Cc1[nH]c2ccccc2c1C(=O)NS(=O)(=O)Nc1ccc(Cl)cc1 | -2.0%
COc1ccc(N2CCN(c3n[nH]c(N)n3)CC2)cc1 | -3.3%
COc1ccc(C(=O)N2CC3(CC(c4cccc([N+](=O)[O-])c4)=NO3)C[C@H]2C(=O)NCC(N)=O)cc1 (some centres not stated) | 0.0%
CSc1nsc(SC)c1NC(=O)OCCc1ccccn1 | -4.6%
Cc1ccc(C(=O)N(Cc2ccco2)Cc2ccco2)cc1 | 10.6%
CC1=NN(c2ccccc2)C(=O)/C1=C/C=C/c1ccc(N(C)C)cc1 | 79.4µM*
CCN1C(=O)[C@H]2[C@H]3CN=C(SCc4ccc(C)cc4)N3[C@@](C)(C(=O)OC)[C@H]2C1=O | ?
CC(=O)c1ccc(NC(=O)CSc2nc(C3CC3)nc3ccccc23)cc1 | -13.7%
COc1c(C)cc(C(=O)C2CCCN(C(=O)CCCn3cncn3)C2)cc1C (configuration not stated) | -1.6%
CC(C)CCNC(=O)CNC(=S)N(Cc1ccccc1)Cc1cccnc1 | 10.9%
COc1ccc(N(CC(=O)N2CCN(c3ccccc3F)CC2)S(=O)(=O)c2c(C)noc2C)cc1 | 32.4%&-2.5%[activator]
O=C(Nc1ccc2nc3n(c(=O)c2c1)CCCC3)c1ccccc1[N+](=O)[O-] | -19.4%
O=C(Oc1ccc(Br)cc1)c1cncc(Br)c1 | 2.8%
COC(=O)c1[nH]c2cc(OC)ccc2c1NC(=O)CCN1CCCC(C)(C)C1 | -7.9%
Fc1ccccc1CN1CCC(Cc2ccccc2)CC1 | -13.2%
Cc1nc([N+](=O)[O-])c(C(=O)OCc2ccccc2)n1C | 19.4%
CCOC(=O)C1(Cc2cccc(Cl)c2)CCCN(C(=O)c2cc(CC)on2)C1 (configuration not stated) | -11.1%
CNC(=O)c1nc(C)n(-c2ccc([N+](=O)[O-])cc2)n1 | 17.3%
CCOc1ccc(CN2CCc3nc(N4CCN(c5ccccn5)CC4)ncc3C2)cc1OC | 6.7%
CCOC(=O)C1CCN(C(=O)c2cc3c(OC)c(OC)c(OC)cc3[nH]2)CC1 | -3.1%
O=C(CSc1ccccn1)Nc1ccccc1F | -18.1%
CCO[C@@H]1OC(C(=O)NCc2ccccc2)=C[C@H](c2ccc(C(F)(F)F)cc2)[C@H]1CCCO | -18.1%
O=C(NCCCN1CCCC1=O)c1ccc2c(c1)OCO2 | -6.3%
O=C(N/N=C/c1ccccc1[N+](=O)[O-])c1ccc(COc2ccccc2-c2ccccc2)cc1 | -11.1%
CC(=O)Nc1ccc(NC(=S)NC(=O)/C=C/c2ccco2)cc1 | ?
Cc1ccccc1OCc1nc2ccccc2c(=O)n1/N=C/c1ccco1 | -4.6%
CC(C)(C)c1cc[n+](C2=C([O-])c3ccccc3C(=O)/C2=N\S(=O)(=O)c2ccccc2)cc1 | -17.1%
Cc1cccc(-n2c(N)cc(=O)nc2SCC(=O)NC2CCCCC2)c1 | 10.8%
CCCCNC(=O)C1CCC(=O)N1CCc1ccccc1 (configuration not stated) | 12.5%
CCCCc1c(O)nc(SCC(=O)c2ccccc2)[nH]c1=O | -5.0%
CCOC(=O)c1[nH]c2ccc(F)cc2c1NC(=O)CCN1CCSCC1 | -7.9%
COc1cc2c(cc1OC)C(COc1cccc(C(F)(F)F)c1)NCC2 (configuration not stated) | -8.1%
Nn1c(SCC(=O)NC(=O)Nc2ccc3c(c2)OCCO3)nnc1C1CC1 | 3.2%
COc1cccc(NC(=O)C(=S)NC2CCCCC2)c1 | 7.1%
O=C(NCc1ccoc1)c1ccc(NC(=O)c2ccccc2Cl)cc1 | -21.2%
O=C(NC1CCCCC1)C(Cc1ccccc1)N1C(=O)C2C3CCC(C3)C2C1=O (configuration not stated) | 8.1%
CCOC(=O)N1CCN(CCC(=O)Nc2cccc(F)c2)CC1 | ?
CCOC(=O)c1cnn(-c2nc(-c3ccccc3F)cs2)c1C(F)(F)F | -5.6%
O=C(COc1ccc(S(=O)(=O)N2CCCC2)cc1)NCc1ccco1 | -1.0%
COC(=O)C(C)Sc1ccc2nnc(-c3ccc(F)cc3)n2n1 (configuration not stated) | -2.0%
CC(C)CNC(=O)CN1C(=O)NC2(CCc3ccccc32)C1=O (configuration not stated) | -7.2%
OCC(O)COc1cccc2ccccc12 (configuration not stated) | 0.0%
Next part
SMILES | VDR inh
O=C(CN1C(=O)NC2(CCCCCC2)C1=O)c1ccc(F)cc1 | -0.8%
O=C(O)c1cccc(NS(=O)(=O)c2ccc(C3CCCCC3)cc2)c1 | 9.2%
O=C(N/N=C/c1c[nH]c2ccccc12)c1cccc(O)c1 | 3.7%
Cc1cccc(N(C(=O)C(F)(F)F)C(C(=O)NC2CCCCC2)c2cccs2)c1 (configuration not stated) | 15.6%
O=C(NCc1ccccc1F)C1CCN(c2nnc(-n3cccc3)s2)CC1 | -0.8%
CCc1ccccc1N(CC(=O)NCC1CCCO1)C(=O)CCC(=O)Nc1cc(C)on1 (configuration not stated) | 4.8%
CC(C)n1c(NCc2ccccc2O)nc2ccccc21 | -10.6%
O=C1/C(=C/c2c[nH]c3ccccc23)CCC/C1=C\c1c[nH]c2ccccc12 | -4.0%
CCOC(=O)/C(=C\c1cccnc1)C(=O)c1cc(C(C)=O)c(Nc2ccccc2)s1 | 7.94µM*
Cc1c(NC(=O)COC(=O)C2CC3C=CC2C3)c(=O)n(-c2ccccc2)n1C (configuration not stated) | 1.8%
COc1cccc(Oc2nc(-c3ccncc3)nc3ccccc23)c1 | -9.0%
CCSc1nnc(NC(=O)c2cccc3ccccc23)s1 | 8.4%
Cc1noc(C)c1C(=O)N1CCC2(CC1)CN(c1ccccc1)C2 | 2.2%

High-throughput results from PubChem BioAssay.
